Compound activity as filed in PubChem BioAssay.
TRPML1 inh – qHTS for Inhibitors of the Human Mucolipin Transient Receptor Potential 1 (TRPML1). actives 0.02% (n = 390,000). TRPML1-inducible cells, Ca2+ dye fluorescence, FDSS; active compounds read low; inhibition of EC80 agonist-evoked calcium signal. activity change, negative = inhibition, % (no concentration beside the values). AID 624415, 2012. Mucolipin-1 (Homo sapiens), Q9GZU1; in the data active means activity change below about -50%; inconclusive means about -30% to -50%; inactive means above about -30%;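 note: stimulus is agonist 54-4 at its EC80 concentration; % is set by controls: 0 for no effect and ±100 for the full control effect; compound concentration not given in the record; the text of the record puts the active cut at -80%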
Target sequence (Q9GZU1 whole entry, looked up): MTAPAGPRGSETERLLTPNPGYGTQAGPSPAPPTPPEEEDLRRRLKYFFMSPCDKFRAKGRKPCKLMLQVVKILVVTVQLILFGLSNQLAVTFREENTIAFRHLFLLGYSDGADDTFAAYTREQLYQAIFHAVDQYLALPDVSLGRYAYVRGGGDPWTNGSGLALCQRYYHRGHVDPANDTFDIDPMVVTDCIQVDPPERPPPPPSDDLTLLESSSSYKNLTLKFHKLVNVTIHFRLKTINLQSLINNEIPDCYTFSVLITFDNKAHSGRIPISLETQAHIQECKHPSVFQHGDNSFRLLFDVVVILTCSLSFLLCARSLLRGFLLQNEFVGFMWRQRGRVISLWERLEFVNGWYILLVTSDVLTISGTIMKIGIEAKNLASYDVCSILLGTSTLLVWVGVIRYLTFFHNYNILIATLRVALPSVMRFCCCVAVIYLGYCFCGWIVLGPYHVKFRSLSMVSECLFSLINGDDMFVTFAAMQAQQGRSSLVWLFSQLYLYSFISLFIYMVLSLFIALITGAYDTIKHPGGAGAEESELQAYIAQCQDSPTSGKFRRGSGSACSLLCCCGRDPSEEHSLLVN
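Tet-induced TRPML1-DL cells loaded with Ca8 no-wash calcium dye were read kinetically on FDSS. Compound addition was followed by EC80 agonist 54-4 (4 uM final); inhibition was read over 110 s.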
Sfp PPTase inh – qHTS Assay for Inhibitors of Bacillus subtilis Sfp phosphopantetheinyl transferase (PPTase) | Potency, µM, without a hit: max response, negative = inhibition, most hits filed as inhibitors | actives 3.5% (n = 310,000) | 4'-phosphopantetheinyl transferase ffp (Bacillus subtilis), Q9F4F7 | Biochemical Sfp PPTase activity, qHTS; active = well fitted inhibition curve with a large enough effect; inconclusive = small, poorly fitted or top-dose-only effect, or another doubt; inactive = no such curve, though single readings can be large or run the other way;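 note: the enzyme is Sfp with the accession as filed and its product quenches rhodamine fluorescence; potency is the fitted concentration of half-maximal effect; 0% = enzyme reaction without inhibitor and -100% = no enzyme wells; top concentration of the series not given in the record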
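After 15 min at room temperature with compound, 15 nM Sfp received 5 uM rhodamine-CoA plus 12.5 uM BHQ-2-ybbR (50 mM Hepes pH 7.6, 10 mM MgCl2). Rate came from the fluorescence difference over 30 min, ex 525/em 598 nm.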
Menin-MLL FL inh – qHTS Assay for Inhibitors Targeting the Menin-MLL Interaction in MLL Related Leukemias: Competition With Fluorescein Labeled MLL-derived Peptide; Fluorescence polarization, fluorescein-MLL peptide displacement from menin; FP activity change, % at 61.4 µM; 290,000 tested, under 10 active; AID 1766, 2009; inconclusive = falling polarisation curve, or a change in total fluorescence; inactive = total fluorescence flat and polarisation flat or rising; no compound was filed as active; the % refers to the polarisation; negative = inhibition;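 note: % of control where 0% means no effect; inhibitors lower the polarisation; unlabelled MLL peptide was the positive control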
gsp ag – qHTS for Agonist of gsp, the Etiologic Mutation Responsible for Fibrous Dysplasia/McCune-Albright Syndrome: qHTS | Potency, µM (doses to about 76.9 µM), for inactives: at the top dose activation (cAMP increase), actives largely listed as activators | actives 0.13% (n = 340,000) | gsp mutant cells, cAMP HTRF, 30 min; control for the full effect not named in the record; active = well fitted activation curve with a large enough effect; inconclusive = small, poorly fitted or top-dose-only effect, or another doubt; inactive = no such curve, though single readings can be large or run the other way; cell line not stated here;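 note: phosphodiesterase inhibitor Ro 20-1724 added with compounds to block cAMP breakdown; potency is the fitted concentration of half-maximal effect; nearly all actives have a fitted effect of over 60% in size; about a fifth of the inactives were tested at one dose only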
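Cells in DMEM/10% FBS with G418 were pretreated with compounds in DMSO plus […] (300 uM stock) for 30 min at 37C. cAMP was measured by HTRF (cAMP-d2 plus anti-cAMP antibody-K) after 30 min at room temperature.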
TRPV1 PAM – HTS Assay for Compounds that Act as Potentiators of the Vanilloid Receptor 1; Transient receptor potential cation channel subfamily V member 1 (Homo sapiens), Q8NER1; TRPV1-expressing cells, Fluo-8 calcium influx, capsaicin EC20 potentiation; host cell line not named in the record; control for the full effect not named in the record; potentiation, % at 8.33 µM; actives 0.02% (n = 320,000); active means potentiation above 80%; inconclusive means 30% to 80%; inactive means below 30%; note: 0% is about no effect
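Fluo-8 calcium influx in TRPV1-expressing cells, kinetic read (ex 480/em 520 nm). Compound added and read 3 min for agonist activity, followed by capsaicin at EC20 final and 2 min further read for enhancement.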
ClpP mod – qHTS Assay for Activators of ClpP | purified B. subtilis ClpP, FRET peptide cleavage, 20 min | Potency, µM (top dose mostly 57.5 µM), without a hit: top-dose activity change, negative = active | actives 1.9% (n = 340,000); active = well fitted falling curve with a large enough effect; inconclusive = small, poorly fitted or top-dose-only effect; inactive = no such curve, though single readings can be large or run the other way; note: potency is the fitted concentration of half-maximal effect; the source files actives as falling curves though it sought activators and does not explain the sign; nearly all actives have a fitted effect of over 65% in size; many hits overshoot -100%
Target sequence (P80244 whole entry, looked up): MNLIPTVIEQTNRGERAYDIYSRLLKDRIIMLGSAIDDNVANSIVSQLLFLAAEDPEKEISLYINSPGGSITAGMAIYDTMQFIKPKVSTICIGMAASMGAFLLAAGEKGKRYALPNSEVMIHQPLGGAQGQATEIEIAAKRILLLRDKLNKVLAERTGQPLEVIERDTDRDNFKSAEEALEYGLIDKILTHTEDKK
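FRET quenching reversal measured ClpP activation: 10 microg/mL B. subtilis ClpP at pH 8 with the FRET-FV decapeptide, read at 430 nm after 320 nm excitation. The 20-min minus 0-min signal was scaled between DMSO/no-enzyme wells and ADEP (5.8 microM final).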
gsp antag – qHTS for Antagonists of gsp, the Etiologic Mutation Responsible for Fibrous Dysplasia/McCune-Albright Syndrome: qHTS. Potency, µM (titrated, usually from 76.9 µM), for the others: at the top dose activity change, negative = inhibition, hits mostly inhibitors. gsp-mutant cells, cAMP HTRF, 30 min; control for the full effect not named in the record. AID 624288, 2012. actives 0.4% (n = 340,000); active = falling curve of any shape with a large fitted effect; inconclusive = falling curve, mostly with a smaller effect; inactive = flat or rising curve; cell line not stated here;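 note: intracellular cAMP measured with PDE inhibitor Ro 20-1724 present during compound exposure; potency is the fitted concentration of half-maximal effect; % is set by controls: 0 for no effect and ±100 for the full control effect; nearly all actives have a fitted effect of over 65% in size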
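Cells, 2000/well, grown 16–24 h in DMEM 10% FBS with 0.5 mg/ml G418, then compounds plus […] (300 uM addition stock), 30 min at 37C. cAMP read by HTRF (cAMP-d2 and anti-cAMP antibody-K in lysis buffer) after 30 min RT.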
The depositor's hits bear a star; ? = inconclusive; . = no result given; [ ] = dose if it differs, or a comment. Random draw from the library. About 4.9% of those tested had a hit in this group.

SMILES	TRPML1 inh	Sfp PPTase inh	Menin-MLL FL inh	gsp ag	TRPV1 PAM	ClpP mod	gsp antag
CC(C)CC(=O)NC(NC(=S)Nc1ccccc1)C(Cl)(Cl)Cl (stereo not given)	-25	4%	-0.4	-7%[15.4 µM]	13	.	-1%
C=CCn1c(SCC(=O)NCc2cccs2)nnc1C1CCCCC1	20	14%	1.3	16%	28	-1.2%	-3%
CCOc1ccc(/C=C(/NC(=O)c2ccccc2Cl)C(=O)O)cc1	-6	13%	-0.3	6%[15.4 µM]	-18	.	-8%
COc1ccc(CC(=O)Nc2cc(=O)n(C)c(=O)n2C)cc1	-14	19%	2.1	11%	-7	0.1%	11%
CCOc1ccc(/C=C(\C(=O)O)c2ccc(S(=O)(=O)N3CCOCC3)s2)cc1OC	-9	-22%	-0.5	15%[15.4 µM]	?	-1.2%	5%
O=C(Nc1ccccc1)c1ccc(NCCc2ccccc2)c([N+](=O)[O-])c1	21	-1%	3.1	?	16	-3.6%	-1%
COc1cc(S(=O)(=O)N2CCCCCC2)ccc1Cl	12	6%	1.2	18%	-5	1.7%	-3%
CC(=O)C1=C(c2ccccc2)NC(=O)NC1c1ccccc1OCC#N (stereo not given)	18	3%	-0.1	-37%	10	-0.2%	-7%
Cc1ccc(-n2c(SCC(=O)Nc3cc(C)on3)nc3c([nH]c4ccccc43)c2=O)cc1	25	17%	2.9	-103%	-4	-14%	6%
Cc1c(NC(=O)C(C)Oc2ccccc2F)c(=O)n(-c2ccccc2)n1C (stereo not given)	6	2%	-1.8	18%	7	.	4%
O=C(Nc1nncs1)c1cccc(S(=O)(=O)N2CCCC2)c1	-8	17%	7.7	2%	-16	-0.1%	12%
CCOC(=O)N1CCN(C(=O)C2CCC(CNS(=O)(=O)c3ccccc3)CC2)CC1 (stereo not given)	0	4%	0.3	-26%	5	0.9%	0%
COc1ccc(C(O)(c2ccccc2OC)C(CN2CCOCC2)c2ccccc2)cc1 (stereo not given)	-7	5%	-1.1	-1%[15.4 µM]	-7	.	-12%
Cc1cc(C)c(S(=O)(=O)N(CC(=O)N2CCOCC2)C2CCCCC2)c(C)c1	3	17%	1.1	8%	0	-2.1%	-4%
COc1ccc(OC)c(/C=N/NC(=O)CC2C(=O)NN=C2C)c1 (stereo not given)	1	19%	0.2	-3%	-4	28µM*	3%
NC(C(=O)O)C(c1ccccc1)C(F)F (stereo not given)	.	?	-1.5	16%	8	-2.7%	1%
CC(C)c1ccc(Nc2nnc(SC3CCOC3=O)s2)cc1 (stereo not given)	-1	-5%	.	-2%[15.4 µM]	-13	-1.9%	11%
CCC(C)Sc1ccc([C@H]2N[C@@](C)(C(=O)OC)[C@H]3C(=O)N(CC)C(=O)[C@@H]23)cc1OC (stereo not given in full)	3	.	.	2%	.	-4.5%	7%
COc1ccc(-n2c(O)c(/C=N/NS(=O)(=O)c3cc(C)ccc3C)c3ccccc3c2=O)cc1OC	2	-18%	?	?	3	-3.1%	?
CCC(=O)Nc1ccc(NC(=O)CSc2nc3cc4c(cc3cc2C)CCC4)cc1	4	?	-0.5	-9%	20	-1.8%	5%
Cn1c(=O)[nH]c(=O)c2c1nc(NCCN)n2CCOc1ccccc1	2	18%	-2.0	10%[15.4 µM]	?	0.0%	-4%
COCCn1nnnc1SCC(=O)Nc1ccc2c(c1)OCO2	-15	6%	5.5	8%	-4	1.1%	9%
Cc1nc(C(F)(F)F)c(C(=O)N/N=C(\N)c2ccccn2)s1	12	11%	-2.9	27%	-4	.	7%
CC(OC(=O)c1cc(S(=O)(=O)N(C)c2ccccc2)ccc1Cl)C(=O)Nc1ccc2c(c1)OCCO2 (stereo not given)	28	14%	2.8	0%	6	-0.8%	1%
COc1ccc(N2CSC(=S)N(c3ccc(OC)cc3)C2)cc1	3	.	.	-15%	.	-1.3%	.
C/C(=N\NC(=O)c1cc(C(C)(C)C)[nH]n1)C12CC3CC(CC(C3)C1)C2	-6	5%	10	1%[15.4 µM]	-6	0.6%	10%
CCSc1nnc(NC(=O)[C@@H](NC(=O)c2ccccc2)C(C)C)s1	15	0%	-0.7	4%	11	2.0%	-14%
CCCc1nn2c(=O)cc(CSCC(=O)Nc3cccc(C)c3)nc2s1	-9	18%	.	2%	23	-0.6%	-7%
COC(CNC(=O)c1ccc(CS(=O)(=O)c2ccccc2)o1)OC	-22	12%	5.2	-16%	-6	.	9%
COc1ccc(N2CCN(c3ccc(N4C(=O)CC(C)C4=O)cc3[N+](=O)[O-])CC2)cc1 (stereo not given)	-16	17%	3.7	-12%	-5	-3.6%	-13%
COc1ccc(CCN=CC2=C(O)CCCC2=O)cc1OC	10	-4%	2.6	?	7	0.8%	5%
Cc1cc(NC(=O)C2CC2)ncc1NC(=O)c1ccccn1	-19	?	1.1	-9%	7	-1.4%	13%
Cc1ccc(-n2c(C)cc3c2CC(C)(C)CC3=O)cc1C	-4	9%	3.9	-8%	-18	-5.0%	3%
O=C(COC(=O)c1ccc(O)cc1O)N=c1sccn1Cc1ccccc1Cl	13	.	.	0%[15.4 µM]	-8	1.4%	-21%
CCc1cc2c(SCC(=O)c3ccc(Cl)s3)ncnc2s1	7	-7%	-0.2	-8%	-7	1.0%	-13%
COc1ccc2nc(NC(=O)C3CCCN(S(=O)(=O)c4cccc5nsnc45)C3)sc2c1 (stereo not given)	-8	20%	7.4	-27%	3	1.2%	-12%

For convenience, some entries already given.
SMILES	TRPML1 inh	Sfp PPTase inh	Menin-MLL FL inh	gsp ag	TRPV1 PAM	ClpP mod	gsp antag
CCc1cc2c(SCC(=O)c3ccc(Cl)s3)ncnc2s1	7	-7%	-0.2	-8%	-7	1.0%	-13%
COc1ccc2nc(NC(=O)C3CCCN(S(=O)(=O)c4cccc5nsnc45)C3)sc2c1 (stereo not given)	-8	20%	7.4	-27%	3	1.2%	-12%

The listing continues:
SMILES	TRPML1 inh	Sfp PPTase inh	Menin-MLL FL inh	gsp ag	TRPV1 PAM	ClpP mod	gsp antag
O=C(COC(=O)c1cccs1)NC1CCCCC1	7	10%	-1.0	-5%	4	-1.3%	2%
CCOc1cc(/C=N/Nc2cccc(C(=O)O)c2)ccc1OCC(=O)N1CCCCC1	-2	5%	1.5	2%[15.4 µM]	0	.	1%
COc1ccc([N+](=O)[O-])cc1N(CC(=O)NC1CCCCC1)S(C)(=O)=O	-10	-3%	-3.5	-1%[15.4 µM]	6	.	-2%
COc1ccc(N(CC(C)C)S(=O)(=O)c2nnc(NC(=O)CC(C)C)s2)cc1	-9	8%	-0.8	-41%	9	2.3%	2%
COc1ccc(Cl)cc1NC(=O)CCc1nnc2ccc(N3CCN(C)CC3)nn12	-14	10%	.	14%	5	-4.1%	9%
COc1ccc(N2CCN(C(=O)NC3CC(=O)N(c4ccc(OC)cc4)C3)CC2)cc1 (stereo not given)	-1	10%	-2.2	4%[15.4 µM]	9	.	-6%
Cc1cccc(/C=N/Nc2ccc3ccccc3n2)c1	7	-22%	-1.7	?	0	4.2%	-6%
Cc1cccc(NC(=O)CCCn2c(=S)[nH]c3ccccc3c2=O)c1	-7	9%	-3.2	-1%	24	-1.5%	-12%
O=C(CN(c1cccc([N+](=O)[O-])c1)S(=O)(=O)c1ccccc1)NCc1cccnc1	-13	19%	-6.8	-16%	18	.	7%
Cc1nn(CC(=O)N(C)c2c(N)n(Cc3ccccc3)c(=O)[nH]c2=O)c(C)c1[N+](=O)[O-]	-10	.	.	1%	10	1.5%	9%
CC(C)N(C)S(=O)(=O)c1ccc(Cl)c(C(=O)O)c1	11	20%	-0.1	4%[15.4 µM]	1	-0.4%	1%
Cc1ccc(CNC(=O)/C=C/c2ccc(S(=O)(=O)N3CCOCC3)cc2)cc1	-21	6%	1.9	-82%[inhibitor]	-3	1.1%	10%
NS(=O)(=O)c1ccc(NC(=S)NC2CCCC2)cc1	-9	10µM*	4.5	-33%[inhibitor]	5	1.4%	3%
O=C(c1ccccc1)N1CC(COc2ccccc2)OC(c2ccco2)O1 (stereo not given)	4	0%	5.8	-22%	-15	-0.8%	9%[15.4 µM]
COc1ccc(-c2n[nH]c3c2C(c2ccc(OC)c(OC)c2)N(c2ccccc2)C3=O)cc1 (stereo not given)	29	9%	-0.4	-5%	?	0.9%	3%
CCC(C)(C)n1nnnc1C(c1ccc(F)cc1)N1CCN(C(=O)c2ccco2)CC1 (stereo not given)	6	8%	7.9	9%[15.4 µM]	2	-3.3%	-8%
O=C(OC(c1ccc(NS(=O)(=O)c2ccccc2)cc1)(C(F)(F)F)C(F)(F)F)c1ccccc1	-3	21%	4.7	2%[15.4 µM]	-14	1.2%	?
Cc1c(NC(=O)/C(C#N)=C/C2CC=CCC2)c(=O)n(-c2ccccc2)n1C (stereo not given)	6	-4%	-1.1	2%[15.4 µM]	4	0.1%	16%
Cn1cc(CCNC(=O)CC2C(=O)NCCN2CC(c2ccccc2)c2ccccc2)cn1 (stereo not given)	4	4%	-12	?	11	-0.9%	-4%
CCOC(=O)c1cnn(-c2ccccc2)c1-c1ccccc1	-12	-9%	2.2	?	-18	-3.6%	-15%
CCc1ccc2c(COC(=O)C3CC(=O)N(CCc4ccccc4)C3)cc(=O)oc2c1 (stereo not given)	3	.	.	0%	-13	-5.3%	-16%
O=C1NC(=O)C2(N1)c1ccccc1-c1ccccc12	-1	.	.	-6%	.	0.4%	1%
O=c1[nH]cnc2ccc([N+](=O)[O-])cc12	.	16%	-2.3	-1%	4	-2.9%	-1%
N#Cc1cn(Cc2ccco2)c(=O)[nH]c1=O	22	.	.	-10%[15.4 µM]	.	1.1%	-2%
